gsp antagonist: gsp mutant antagonism; 0.4% of 340,000 active; AID 624288; Potency, µM (titrated, usually from 76.9 µM), for the others: top-dose activity change, negative = inhibition, actives largely listed as inhibitors; gsp-mutant cells, cAMP HTRF, 30 min; control for the full effect not named in the record; active = falling curve of any shape with a large fitted effect; inconclusive = falling curve, mostly with a smaller effect; inactive = flat or rising curve; cell line not stated here;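 also: intracellular cAMP measured with PDE inhibitor Ro 20-1724 present during compound exposure; potency is read from the fitted curve at half-maximal effect; % is scaled to controls: 0 for no effect and ±100 for the full control effect; nearly all actives have a fitted effect of over 65% in size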
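Measurement of cellular cAMP by homogeneous time-resolved fluorescence following a 30 min compound exposure at 37C. The PDE inhibitor […] was present throughout; the assay buffer was DPBS with 0.05% BSA and 0.005% Tween 20.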
Sfp PPTase inh: blocks B. subtilis Sfp PPTase activity; 3.5% of 310,000 active; Potency, µM, without a hit: max response, negative = inhibition, hits mostly inhibitors; Q9F4F7; Biochemical Sfp PPTase activity, qHTS; active = well fitted inhibition curve with a large enough effect; inconclusive = small, poorly fitted or top-dose-only effect, or another doubt; inactive = no such curve, though single readings can be large or run the other way;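 also: the enzyme is Sfp with the accession as filed and its product quenches rhodamine fluorescence; potency is read from the fitted curve at half-maximal effect; 0% = enzyme reaction without inhibitor and -100% = no enzyme wells; top concentration of the series not given in the record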
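Sfp 15 nM + cpd, 15 min RT; start w/ rhodamine-CoA 5 uM, BHQ-2-YbbR 12.5 uM (final); 50 mM Hepes pH 7.6, 10 mM MgCl2, 0.01% NP-40, 0.01% BSA; read 525/598 nm at 0 and 30 min.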
gsp ag: gsp mutant agonism; Potency, µM (highest dose often 76.9 µM), for the others: at the top dose activation (cAMP increase), most hits filed as activators; 0.13% of 340,000 active; gsp mutant cells, cAMP HTRF, 30 min; control for the full effect not named in the record; active = well fitted activation curve with a large enough effect; inconclusive = small, poorly fitted or top-dose-only effect, or another doubt; inactive = no such curve, though single readings can be large or run the other way; cell line not stated here;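 also: phosphodiesterase inhibitor Ro 20-1724 added with compounds to block cAMP breakdown; potency is read from the fitted curve at half-maximal effect; nearly all actives have a fitted effect of over 60% in size; about a fifth of the inactives were tested at one dose only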
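Cells in DMEM/10% FBS with G418 were pretreated with compounds in DMSO plus […] (300 uM stock) for 30 min at 37C. cAMP was measured by HTRF (cAMP-d2 plus anti-cAMP antibody-K) after 30 min at room temperature.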
Menin MLL FP FL: menin-MLL binding inhibition, fluorescein peptide; Fluorescence polarization, fluorescein-MLL peptide displacement from menin; FP activity change, % at 61.4 µM; 290,000 tested, under 10 active; inconclusive = falling polarisation curve, or a change in total fluorescence; inactive = total fluorescence flat and polarisation flat or rising; no compound was filed as active; the % refers to the polarisation; negative = inhibition;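 also: % of control where 0% means no effect; inhibitors lower the polarisation; unlabelled MLL peptide was the positive control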
CtBP-E1A inh: inhibitors of CtBP/E1A interaction; AlphaScreen GST-E1A/His-CtBP binding, 1536-well; stronger effect = lower value; control for the full effect not named in the record; activity change, % (test concentration not listed); 0.49% of 340,000 active; AID 651724; in the data active means activity change below about -65%; inconclusive means about -30% to -65%; inactive means above about -30%; also: % is scaled to controls: 0 for no effect and ±100 for the full control effect; compound concentration not given in the record
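In 5 uL wells, 23 nL compound meets equimolar GST-E1A and His-CtBP (5X stock 125 nM each) for 2 h, 37 °C. Beads (5X, 50 ug/mL) then 1 h, 37 °C, dark.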
ClpP mod: qHTS Assay for Activators of ClpP; ATP-dependent Clp protease proteolytic subunit (Bacillus subtilis (strain 168)), P80244; purified B. subtilis ClpP, FRET peptide cleavage, 20 min; Potency, µM (highest dose often 57.5 µM), without a hit: at the top dose activity change, negative = active; 1.9% of 340,000 active; active = well fitted falling curve with a large enough effect; inconclusive = small, poorly fitted or top-dose-only effect; inactive = no such curve, though single readings can be large or run the other way; also: potency is read from the fitted curve at half-maximal effect; the source files actives as falling curves though it sought activators and does not explain the sign; nearly all actives have a fitted effect of over 65% in size; many hits overshoot -100%
Target sequence (P80244 whole entry, looked up): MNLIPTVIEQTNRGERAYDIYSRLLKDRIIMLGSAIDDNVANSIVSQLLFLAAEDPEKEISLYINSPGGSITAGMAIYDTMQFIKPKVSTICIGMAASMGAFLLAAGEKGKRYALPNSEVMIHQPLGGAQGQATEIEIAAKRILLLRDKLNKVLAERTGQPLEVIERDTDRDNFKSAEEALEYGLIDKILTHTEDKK
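FRET quenching reversal measured ClpP activation: 10 microg/mL B. subtilis ClpP at pH 8 with the FRET-FV decapeptide, read at 430 nm after 320 nm excitation. The 20-min minus 0-min signal was scaled between DMSO/no-enzyme wells and ADEP (5.8 microM final).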
TRPV1 PAM: human TRPV1 potentiation; TRPV1-expressing cells, Fluo-8 calcium influx, capsaicin EC20 potentiation; host cell line not named in the record; control for the full effect not named in the record; potentiation, % at 8.33 µM; 0.02% of 320,000 active; AID 540277; active means potentiation above 80%; inconclusive means 30% to 80%; inactive means below 30%; also: 0% is about no effect
Target sequence (Q8NER1 whole entry, looked up): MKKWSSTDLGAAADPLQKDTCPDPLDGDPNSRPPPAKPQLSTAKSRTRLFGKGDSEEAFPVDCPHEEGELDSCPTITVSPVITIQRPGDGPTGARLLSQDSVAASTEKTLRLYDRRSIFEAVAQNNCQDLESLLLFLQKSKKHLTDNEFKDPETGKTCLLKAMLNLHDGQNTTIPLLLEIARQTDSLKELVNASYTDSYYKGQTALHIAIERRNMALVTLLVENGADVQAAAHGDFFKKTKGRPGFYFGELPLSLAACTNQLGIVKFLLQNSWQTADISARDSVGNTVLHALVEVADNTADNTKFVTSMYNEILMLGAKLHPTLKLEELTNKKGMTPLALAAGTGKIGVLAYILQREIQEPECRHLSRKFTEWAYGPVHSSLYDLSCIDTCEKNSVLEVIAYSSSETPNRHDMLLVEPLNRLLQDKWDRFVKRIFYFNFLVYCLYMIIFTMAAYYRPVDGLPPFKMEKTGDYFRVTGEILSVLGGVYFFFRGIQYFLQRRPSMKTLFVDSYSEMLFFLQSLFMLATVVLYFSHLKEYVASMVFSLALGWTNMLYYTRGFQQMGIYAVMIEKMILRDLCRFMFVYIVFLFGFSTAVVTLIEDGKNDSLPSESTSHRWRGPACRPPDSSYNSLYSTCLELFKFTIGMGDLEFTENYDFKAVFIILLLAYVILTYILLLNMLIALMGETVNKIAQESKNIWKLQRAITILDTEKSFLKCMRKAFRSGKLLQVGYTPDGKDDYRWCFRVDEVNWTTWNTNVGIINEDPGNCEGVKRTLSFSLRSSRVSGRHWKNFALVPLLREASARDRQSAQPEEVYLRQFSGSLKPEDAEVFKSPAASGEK
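Cells expressing TRPV1 were dye-loaded with Fluo-8 and read kinetically: 10 s baseline, 3 min after compound (agonist portion), then 2 min after EC20 capsaicin (allosteric enhancer portion). Calcium-bound dye fluorescence at 480/520 nm.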
Starred values were filed as active, the others as inactive; ? = inconclusive; / = no result given; & = joins results of further samples; [ ] = another dose, or the depositor's remark.

SMILES	gsp antagonist	Sfp PPTase inh	gsp ag	Menin MLL FP FL	CtBP-E1A inh	ClpP mod	TRPV1 PAM
Cc1sc(NC(=O)CSc2nnnn2C2CCCC2)c(C#N)c1C	0%	3%	2%	-1.1	13	0.7%	-7
O=C(NCCCN1CCOCC1)c1cc(-c2ccccc2F)no1	7%	5%	10%	/	/	2.0%	12
CC(C)CN(C(=O)COC(=O)c1cccs1)c1c(N)n(Cc2ccccc2)c(=O)[nH]c1=O	/	/	-28%	/	-22	-3.3%	/
CC(C)c1nnc(NC(=O)CCC(=O)NCC2CCCO2)s1 (configuration not stated)	4%	7%	-68%[inhibitor]	0.8	1	-6.2%	-9
O=C(Cn1c(=O)c2cccn2c2cccnc21)NCCCN1CCN(c2ccc(F)cc2)CC1	0%	16%	29%	/	-5	-21%	0
COc1ccc(Cc2c(N)nc(N)nc2N)cc1	8%	4%	-2%	-1.1	20	0.9%	-44
CC(=O)OCC(=O)C1(O)CCC2C3CCC4=CC(=O)CCC4(C)C3C(O)CC21C (configuration not stated)	-9%	/	/	/	0	0.2%	/
CC(Oc1ccccc1)C(=O)Nc1cccc([N+](=O)[O-])c1 (configuration not stated)	6%	16%	-7%[15.4 µM]	-1.2	-1	/	-17
CCOC(=O)c1c(C)oc2ccc(NS(=O)(=O)c3ccc(C(=O)O)cc3)cc12	1%	-4%	-11%	1.0	?	/	0
O=C(COc1ccccc1F)Nc1ccccc1C(=O)NC1CC1	2%	/	?	/	7	5.3%	-16
CCOC(=O)c1c(-c2ccc(OC)c(OC)c2)csc1NC(=O)C1CCCO1 (configuration not stated)	25µM*	-28%	-4%[15.4 µM]	6.4	0	/	-10
CCOC(=O)c1cc(-c2ccc(OC)cc2)nc2c1c(C)nn2CCC#N	1%	-4%	29%	2.3	23	25µM*	-6
CC1=CC(C)[C@H](/C=N/n2c(=O)[nH]c3c([nH]c4ccc(C)cc43)c2=O)C(C)C1 (some centres not stated)	0%	24%	-4%[15.4 µM]	4.8	0	-0.7%	-12
CCOc1cc(C(=O)Nc2cc(F)ccc2C)ccc1OCC(=O)N1CCOCC1	-2%	/	-7%	/	11	2.1%	-1
O=C(NCC(F)(F)F)N1CCOCC1	5%	15%	12%	-0.2	4	-2.7%	8
COc1cc(OC)cc(C(=O)N[C@H](C(=O)OCC(=O)c2ccc(F)cc2)C(C)C)c1	12%	-3%	6%[15.4 µM]	0.1	-1	-0.3%	-8
COc1ccc(/C(O)=C2\C(=O)C(=O)N(c3cc(C)on3)C2c2ccccc2OC)cc1C (configuration not stated)	-18%	8%	?	1.7	-7	-5.8%	26
COc1cccc(C(=O)OC(C)CN2CCCC2)c1 (configuration not stated)	10%	17%	-5%	-1.1	5	0.6%	-8
Cc1ccc(C)c(-n2nnc3ccccc3c2=O)c1	/	/	?	/	1	0.3%	/
CCC(=O)Nc1nnc(SCc2ccccc2F)s1	-2%	26%	-2%[15.4 µM]	-5.1	-3	/	21
O=C(Cc1nc(-c2ccc([N+](=O)[O-])cc2)cs1)Nc1ccccc1	-18%	-9%	?	3.7	6	1.1%	3
Cc1cc(C)cc(N(C(C)C(=O)Nc2c(C)n(C)n(-c3ccccc3)c2=O)S(C)(=O)=O)c1 (configuration not stated)	8%	9%	1%	1.8	10	-3.7%	5
Oc1c(C=NCc2ccccc2)sc2ccccc12	/	10%	15%[15.4 µM]	4.1	4	/	-2
O=C(CN1CCN(c2ccccc2)CC1)Nc1ccccc1C(=O)NCCc1ccccc1	/	/	13%	/	-11	-5.6%	/
Cc1cc(C(=O)N2CCN(S(=O)(=O)c3ccccc3F)CC2)c(C)o1	4%	18%	-37%[inhibitor]	4.2	-5	/	1
Cc1c(NC(=O)Cn2nc(C(=O)O)c3ccccc3c2=O)c(=O)n(-c2ccccc2)n1C	-11%	21%	11%	-2.1	11	4.6%	5
COc1ccc(OCC(=O)OCC(=O)N2CC(=O)Nc3ccccc32)cc1	-11%	6%	-25%	4.7	3	-0.6%	-19
COCCCNC(=O)c1cc2c(=O)n3cccc(C)c3nc2s1	9%	23%	-29%	-1.5	-4	3.8%&4.8%	12
C/C(=N\NC(=O)OC(C)(C)C)c1ccc[nH]1	10%	11%	5%[15.4 µM]	-1.4	-1	/	1
CS(=O)(=O)Nc1ccc(OCc2ccccc2)cc1	5%	-4%	-28%	-0.8	3	-0.4%	-6
Cc1ccc(C(=O)CCNc2ccc(Cl)cc2)o1	5%	-1%	-22%	0.5	-1	6.6%	7
Cc1c(C(=O)O)c(C(=O)O)c2n1CCS2	10%	-30%	3%[15.4 µM]	5.4	1	/	-3
O=S(=O)(c1ccc(Br)c2ccccc12)N1CCCC1	-14%	-18%	9%[15.4 µM]	1.4	32	-1.7%	1
Cc1ccc(C(=O)N/C(=C/c2cccs2)C(=O)N2CCCCC2)cc1	-1%	-10%	?	-1.6	/	-2.5%	9
c1ccn(-c2ccc(-c3ccn[nH]3)cc2)c1	-7%	18%	-2%	-2.2	/	-3.7%	14
O=C(Nc1ccc2c(c1)OCCO2)c1c(F)c(F)c(F)c(F)c1F	-11%	7%	1%	3.1	-7	-2.3%	1
CC(CC(=O)NC1CCCC1)c1ccccc1 (configuration not stated)	19%	12%	6%	-0.7	8	0.3%	6
CCCCNC(=O)n1c(SC)nc2ccccc21	-9%	-8%	-2%	1.6	0	1.6%	-7
O=C(CSc1nc2ccccc2s1)NNC(=O)Nc1ccc(Cl)c(Cl)c1	?	6%	-29%	1.9	?	-2.2%	16
COc1ccc(CNC(=O)C(C)Sc2ccc(C)cc2)cc1 (configuration not stated)	4%	2%	9%	1.4	2	/	-32

Records listed so far printed as active in gsp antagonist:
| Molecule | gsp antagonist | Sfp PPTase inh | gsp ag | Menin MLL FP FL | CtBP-E1A inh |
| --- | --- | --- | --- | --- | --- |
| CCOC(=O)c1c(-c2ccc(OC)c(OC)c2)csc1NC(=O)C1CCCO1 (configuration not stated) | 25µM* | -28% | -4%[15.4 µM] | 6.4 | 0 |

(listing goes on)
SMILES	gsp antagonist	Sfp PPTase inh	gsp ag	Menin MLL FP FL	CtBP-E1A inh	ClpP mod	TRPV1 PAM
COC(=O)c1ccc(CNC(=O)COC(=O)CC23CC4CC(CC(Br)(C4)C2)C3)cc1	-6%	7%	-4%	-9.6	2	2.9%	14
c1ccc2cc3c(NCCN4CCOCC4)ccnc3cc2c1	?	-20%	1%	-16	/	4.7%	-10
COc1ccc(S(=O)(=O)Cc2ccc(C(=O)N3CCN(c4cccc(C)c4C)CC3)o2)cc1	-5%	-3%	7%	-0.4	-1	2.9%	-30
CCCSC(=O)N(CC)CC(=O)Nc1c(CC)cccc1CC	-2%	3%	6%	-0.2	3	-1.2%	-9
O=C1CCCC(O)=C1Sc1ccccc1C(=O)O	61%[activator]	56µM*	-1%	0.4	/	1.1%	15
COC(=O)c1ccsc1NC(=O)CCS(=O)(=O)c1ccccc1	3%	-1%	-17%	/	6	1.7%	3
CC1(NC(=O)c2cc(S(=O)(=O)N3CCCCC3)ccc2Cl)CCS(=O)(=O)C1 (configuration not stated)	5%	-4%	3%	-1.1	10	2.4%	-3
COc1cc([N+](=O)[O-])ccc1NC(=O)C1CCCN(S(C)(=O)=O)C1 (configuration not stated)	-8%	/	-31%[inhibitor]	/	6	1.4%	-24
CC1CCCN(CC(=O)Nc2ccc(S(=O)(=O)N3CCCCC3)cc2)C1 (configuration not stated)	4%	17%	-17%	0.4	17	0.0%	-7
COc1ccccc1OCCCCCNCCO	-8%	0%	-5%	0.8	-4	-1.9%	-19
COc1ccc(S(=O)(=O)Cc2ccc(C(=O)NCc3ccccc3OC)o2)cc1	1%	28%	3%	0.1	/	-2.5%	-1
O=C(OCc1nc2ccccc2s1)c1cc2ccccc2oc1=O	/	9%	/	9.8	/	/	6
O=C(NC(Cc1ccccc1)C(=O)O)/C(=C/c1ccc([N+](=O)[O-])cc1)NC(=O)c1ccccc1 (configuration not stated)	-20%	15%	4%[15.4 µM]	2.3	-1	1.0%	4
COC(=O)C1CCN(C(=O)COC(=O)Cn2cnnn2)CC1	4%	0%	17%	-1.2	-1	-2.6%	-9
Cc1cc2ccccc2c(=O)n1CC(=O)NCC(=O)N1CCN(c2cccc(Cl)c2)CC1	-12%	-28%	7%	4.5	6	?	-1
CSC1=NCCN1S(=O)(=O)c1ccc(F)cc1	5%	-8%	-45%[inhibitor]	0.0	/	-2.0%	-37
c1ccc(CSc2ncnc3c2cnn3-c2ccccc2)cc1	12%	-25%	-6%	0.6	3	-1.9%	13
CCN(Cc1ccccc1)C(=O)CN1C(=O)c2ccccc2C1=O	6%	4%	8%	-3.3	0	/	20
COc1cccc(-n2c(-c3ccco3)nc3nc4ccccc4nc32)c1	-8%	1%	-11%	2.5	/	-6.7%	10
COC(=O)c1nnn(-c2ccc(Cl)c(Cl)c2)c1C(=O)OC	3%	1%	-31%[15.4 µM]	-2.5	12	/	-10
CCc1ccc(NC2=NC(C(=O)NC3CCCCC3)CC(=O)N2)cc1 (configuration not stated)	1%	13%	20%	0.4	8	0.3%	1
CC(C)Nc1ncnc2c1cnn2Cc1ccc(Cl)cc1	-4%	6%	2%	5.8	/	-1.3%	-19
CC1Sc2ccc(Cl)cc2-c2nc(N)ncc21 (configuration not stated)	2%	3%	-4%[15.4 µM]	1.6	-22	/	5
CC(C)(C)n1cnc2cc(NC(=O)c3ccc(Cl)cc3)ccc21	-14%	-1%	-2%[15.4 µM]	-2.3	4	-8.6%	-61
CCOC(=O)c1ccc(N2C(=O)CC(N(C)Cc3ccccc3)C2=O)cc1 (configuration not stated)	7%	16%	-28%	1.5	2	0.4%	10
Cc1ccc(C(=O)Nc2nnc(Cc3ccccc3)s2)cc1	12%	7%	9%	-7.4	-3	-3.6%	1
CCOC(=O)c1cc(C(=O)OCC)c2cc(Br)ccc2n1	7%	15%	15%	-0.5	9	-0.9%	-9
Cc1ccc(C(=O)N/N=C\c2c(C)nn(-c3ccccc3)c2Cl)cn1	4%	-9%	12%	-0.1	-8	-4.0%	-21
O=C(CN1C(=O)c2ccccc2C1=O)Nc1cccc(S(=O)(=O)Nc2ccccc2Cl)c1	-13%	13%	29%	9.4	-68*	-6.5%	22
